Bioassay records (PubChem BioAssay)
HCMV NEC inh – disrupts HCMV UL50-UL53 complex binding. HTRF UL50-UL53 interaction, normalized percent inhibition. inhibition, % (concentration not given with the values). hit rate 0.15% among 190,000;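 active = both replicates at 50% or more, plus weaker picks with an unusually low signal ratio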;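 also: stock transfer was 100 nL into about 20 µL; 0% = negative control wells and 100% = wells with untagged competitor protein; inactives centre near -12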
GIV-Gai inh – inhibitors of GIV GBA-motif binding to rat Galpha-i3 | Galpha-i3/FITC-GIV peptide fluorescence polarization, 90 min; stronger effect = lower value; scaled: aluminum fluoride 0%, vehicle 100% | hit rate 0.42% among 210,000 | percent of control (FP), % (test concentration not listed) | P08753;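 active = replicate mean at 85% of control or lower, very high polarization wells dropped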;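 also: wells of about 15 µL received 100 nL stock; the first replicate is given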
Target sequence (P08753 whole entry, looked up): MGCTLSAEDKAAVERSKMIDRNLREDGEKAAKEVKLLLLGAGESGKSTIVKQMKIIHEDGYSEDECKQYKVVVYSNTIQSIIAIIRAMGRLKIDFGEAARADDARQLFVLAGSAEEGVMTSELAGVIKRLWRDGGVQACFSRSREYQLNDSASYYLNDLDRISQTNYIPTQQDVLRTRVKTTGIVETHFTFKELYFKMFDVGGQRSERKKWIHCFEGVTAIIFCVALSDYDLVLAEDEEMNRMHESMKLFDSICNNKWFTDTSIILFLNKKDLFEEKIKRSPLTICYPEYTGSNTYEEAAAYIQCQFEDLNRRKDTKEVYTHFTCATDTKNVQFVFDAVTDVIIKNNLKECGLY
Sa growth 42C – S. aureus growth inhibition | AID 720641 | relative growth, % (concentration not given with the values) | hit rate 0.53% among 170,000 | S. aureus RN4220 growth, OD600, 20 h, 42 °C; stronger effect = lower value;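 active = growth at 42 °C up to 50% and 20 or more points under that at 30 °C, or under 10% at both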;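 also: 300 nL library stock went into each well; scaled to the means of positive and negative controls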
Sa growth 42C second temp – further read-out of Sa growth 42C, marked with its call; relative growth, %; measured here: growth at 30 °C;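 optical density after 20 h as mean of two plates; 100% = untreated growth and lower means inhibition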
* marks the source's active call; other numbers are inactive results; x = not tested or not shown; & = joins results of further samples.

SMILES	HCMV NEC inh	GIV-Gai inh	Sa growth 42C	Sa growth 42C second temp
COc1ccc2c(c1)CCC1Sc3ccccc3N=C21 (stereo not drawn)	-5.7	104.2	59.9	64.6
CCOc1ccc(-c2nc(NC(C)=O)c3c(=O)oc4ccccc4c3n2)cc1	-4.6	110.1	86.9	84.4
NNC(=O)C1C2CCCCC21 (stereo not drawn)	-15.9	x	108.3	82.5
COc1ccc(CSc2nncn2N)cc1	-3.0	103.9	102.3	106.3
CCCCn1c(SCC(=O)NCc2ccccc2)nc2c(sc3ccccc32)c1=O	x	99.1&103.8	79.8	85.0
CCCc1cc(Sc2ccc(NC(=O)c3ccccc3)cc2)n2ncnc2n1	-10.4	100.2	x	x
O=C(Nc1ccc2oc(=O)ccc2c1)c1cccs1	-32.0	95.9	92.2	88.4
CCc1nc(SC)ncc1C(=O)NCCN1CCN(c2cccc(Cl)c2)CC1	8.9	103.5	103.9	92.1
CCn1c(=O)c(N2CCC(C(=O)NCCc3c[nH]c4ccc(OC)cc34)CC2)nc2cccnc21	-6.1	106.9	x	x
CC1(C)Cc2ccccc2-c2cc3nc4ccccc4nc3n21	18.2	109.2	82.1	44.2
CC(Oc1ccc2c(-c3ccccc3)cc(=O)oc2c1)C(=O)ON1C(=O)CCC1=O (stereo not drawn)	-46.1	x	115.2	83.3
Cc1nc(S(=O)(=O)NCCNc2ccc(-c3ccc(F)cc3)nn2)cn1C	-5.8	105.8	90.5	90.5
OCCn1c(SC2CCCCC2)nc2ccccc21	x	102.7	80.8	45.6
O=C(c1ccco1)c1cn(CCOc2ccccc2Cl)c2ccccc12	x	107.0	104.2	87.5
Cc1cc(Nc2c3c(nc4ncnn24)CCC3)ccc1Br	-4.3	102.7	x	x
COc1ccc(-n2ccnc(SCC(=O)Nc3ccc(F)cc3F)c2=O)cc1	10.6	104.1	x	x
CN(C(=S)NCc1ccco1)C(c1ccccc1)c1ccccc1	7.6	x	84.3	95.8
COc1cc(C(=O)NCCSc2c(C)[nH]c3ccccc23)cc(OC)c1OC	-17.8	104.5	97.5	88.1
Cc1ccc(NC(=O)C(Cc2c[nH]c3ccccc23)NC(=O)C(c2ccccc2)c2ccccc2)cc1 (stereo not drawn)	-8.6	x	101.3	98.3
CCOc1ccc(CNC(=O)c2ccc(NC(=O)N3CCCCc4ccccc43)cc2)cc1	x	107.0	105.2	100.7
Cc1cc(NC(=O)c2ccccc2C)n(-c2nc3ccccc3[nH]2)n1	-1.8	x	102.0	53.7
COc1ccc(C)cc1NC(=O)COc1ccccc1F	-25.7	x	98.8	83.0
CC1CC(=O)C2=C(O1)c1c(ccc3ncccc13)NC2c1ccc(Cl)cc1Cl (stereo not drawn)	-20.9	100.3	97.6	74.2
CC1CCN(C(=O)c2cc3c(s2)-c2ccc(Cl)cc2S(=O)(=O)C3)CC1	-35.8	107.7	x	x
Cc1onc(-c2ccccc2)c1C(=O)Nc1ccc2c(C)cc(=O)oc2c1	9.9	x	116.3	96.7
O=C(Cc1ccccc1)Nc1nn2c(COc3ccccc3)nnc2s1	x	102.0	100.8	80.5
O=C(Nc1ccccc1)c1cc(Br)cc2c1OCC2	-15.9	100.7	90.1	84.2
Cc1ccc(NC(=O)Cn2cc(S(=O)(=O)N3CCCC3)c(S(=O)(=O)N3CCCC3)c2)cc1C	x	111.9	115.9	80.5
COc1ccc(-c2csc3ncnc(NCC4CCCO4)c23)cc1 (stereo not drawn)	-9.6	103.8	x	x
CCOc1cc(CNC(=O)c2ccc3nc(CCc4ccccc4)oc3c2)ccc1OC	x	97.1	90.7	90.8

7 consecutive entries already listed, for reference:
SMILES	HCMV NEC inh	GIV-Gai inh	Sa growth 42C	Sa growth 42C second temp
COc1ccc2c(c1)CCC1Sc3ccccc3N=C21 (stereo not drawn)	-5.7	104.2	59.9	64.6
CCOc1ccc(-c2nc(NC(C)=O)c3c(=O)oc4ccccc4c3n2)cc1	-4.6	110.1	86.9	84.4
NNC(=O)C1C2CCCCC21 (stereo not drawn)	-15.9	x	108.3	82.5
COc1ccc(CSc2nncn2N)cc1	-3.0	103.9	102.3	106.3
CCCCn1c(SCC(=O)NCc2ccccc2)nc2c(sc3ccccc32)c1=O	x	99.1&103.8	79.8	85.0
CCCc1cc(Sc2ccc(NC(=O)c3ccccc3)cc2)n2ncnc2n1	-10.4	100.2	x	x
O=C(Nc1ccc2oc(=O)ccc2c1)c1cccs1	-32.0	95.9	92.2	88.4

(next part)
SMILES	HCMV NEC inh	GIV-Gai inh	Sa growth 42C	Sa growth 42C second temp
O=C(NCc1cccnc1)c1cnn2c1NC(c1ccccc1)CC2C(F)(F)F (stereo not drawn)	-6.4	108.3	103.2	100.5
Cn1c2c(c(=O)n(C)c1=O)C(c1cccc(Cl)c1)C1C(=O)c3ccccc3C1=N2 (stereo not drawn)	x	103.3	94.8	82.5
CCCn1c(SCC(O)c2ccc(OC)cc2)nc2ccccc21 (stereo not drawn)	-8.9	101.7	77.2	81.2
N=C1N(c2ccc(Cl)c(Cl)c2)C(=O)NC12CCCC2	1.9	x	86.7	75.4
CCn1c(=O)/c(=C2/Sc3ccc(Cl)cc3N2C)s/c1=C1/C(=O)N(C)N=C1C	-24.9	95.3	101.0	77.2
CCC(=O)N1c2ccccc2CC1C(=O)N1CCN(c2cccc(Cl)c2)CC1 (stereo not drawn)	x	97.2	95.7	85.0
Cc1ccccc1CS(=O)(=O)CC1Nc2cc(C(=O)O)ccc2NC1=O (stereo not drawn)	-11.8	109.3	76.9	82.1
CCOc1ccc(-c2nonc2NC(=O)c2oc3c(C)c(C)ccc3c2C)cc1OCC	-3.7	103.5	100.6	84.0
COc1ccc(/C=C2\N=C(SCC(=O)N3CCN(C(=O)c4ccco4)CC3)N(c3cc(C)cc(C)c3)C2=O)cc1	-28.9	x	92.1	93.6
O=c1[nH]c(-c2ccc(S(=O)(=O)N3CCCC3)cc2)nc2sc3c(c12)CCCC3	-1.4	109.1	100.3	106.1
Cc1cc(C)cc(NC(=O)Cn2nnc(C(=O)Nc3cc(C)cc(C)c3)c2N)c1	-0.9	106.4	102.4	79.0
CCCCN(CC)CCNC(=O)C1CCCN1c1nnc(N2CCCC2=O)s1 (stereo not drawn)	-23.9	99.7	x	x
Cc1noc(/C=C/c2ccco2)c1S(=O)(=O)N1CCC(C(=O)Nc2ccc(F)cc2F)CC1	-30.4	100.1	112.6	87.5
COc1ccc2c(C)cc(Sc3nnnn3-c3ccccc3)nc2c1	x	105.0	104.0	87.3
CCSC1=N/C(=C\c2ccc(Br)s2)C(=O)S1	x	106.5	102.3	82.2

Reformatted with each value named: entries from further up
> Cc1noc(/C=C/c2ccco2)c1S(=O)(=O)N1CCC(C(=O)Nc2ccc(F)cc2F)CC1
  HCMV NEC inh = -30.4	GIV-Gai inh = 100.1	Sa growth 42C = 112.6	Sa growth 42C second temp = 87.5

> COc1ccc2c(C)cc(Sc3nnnn3-c3ccccc3)nc2c1
  HCMV NEC inh = x	GIV-Gai inh = 105.0	Sa growth 42C = 104.0	Sa growth 42C second temp = 87.3

(next part)
SMILES	HCMV NEC inh	GIV-Gai inh	Sa growth 42C	Sa growth 42C second temp
CCCN1CCN(c2ccc(NC(=O)c3ccccc3Cl)c(C(=O)O)c2)CC1	-28.0	98.8	x	x
Cc1scc(CN2CCN(C(=O)c3ccco3)CC2)c1C	-35.6	101.7	99.5	89.6
CCc1ccc(C(=O)NC(=S)Nc2ccc3[nH]c(=O)[nH]c3c2)cc1	-3.3	99.6	104.4	88.6
Cc1ccc(CNC(=O)c2c(-c3cccc(Br)c3)noc2C)o1	x	109.0	85.2	91.6
C=CCN(C(=O)Cn1c(=O)n(-c2ccc(C)cc2)c(=O)c2sccc21)c1ccccc1	x	103.0	107.0	93.8
Cc1ccc(OC(=O)COc2ccc3ccccc3c2)cc1	-21.0	x	100.9	97.8
CCc1ccc(C(=O)NC2=NC(c3cc(OC)ccc3OC)CC(=O)N2)cc1 (stereo not drawn)	-3.1	104.5	91.3	89.4
CNC(=S)NCc1ccc(-c2csnn2)cc1	-43.0	102.6	89.5	86.5
O=C(CN1CCSc2ccccc21)N1CCN(c2ccc(Cl)cc2)CC1	-32.5	109.5	x	x
CSc1ccccc1NC(=O)CSC1=NCCN1	-21.6	x	106.5	91.8
N/C(=N\N=C\c1ccccc1)SC1CC(=O)N(c2ccccc2)C1=O (stereo not drawn)	-6.3	97.7	113.5	77.4
O=C1CN(C(=O)c2ccc3c4c(cccc24)CC3)c2ccccc2N1	-0.9	95.8	94.1	101.3
Cc1cc(C)c(C2=CSC3=NS(=O)(=O)CCN23)c(C)c1	-15.0	x	99.3	98.8
O=C(Cn1ncc(Cl)c(Cl)c1=O)N1CCCc2ccccc21	-75.0	x	98.1	85.0
CC1N=C2c3ccccc3N=C(SCc3ccc(F)cc3)N2C1=O (stereo not drawn)	x	102.6	76.5	85.3
COc1ccc(OC)c(NC(=O)c2cc(-c3cccnc3)on2)c1	-20.6	100.2	x	x
COc1ccc(CNS(=O)(=O)c2ccc(C(=O)N(C)C)s2)cc1	x	104.1	111.8	95.3
O=C(/C=C/c1ccco1)OCc1cccc(C(F)(F)F)c1	-10.3	x	89.1	92.0
Cc1nn(CC(=O)NC2CCCCC2)c(=O)c2cc3cc(F)ccc3n12	-37.0	97.4	107.5	96.3
CC(C)N(Cc1ccccc1)C(=O)c1cc(-c2ccccc2)n[nH]1	-0.2	98.5	94.2	91.8
Cc1c(C)c2c(cc(C)c3c(-c4ccccc4)coc32)oc1=O	-11.5	100.9	92.4	92.1
COC(=O)C1=[N+]([O-])OC(C(=O)OC)C1c1c[nH]c2ccccc12 (stereo not drawn)	x	97.7	115.5	87.6
CCOc1ccc(C(=O)N2CCC(C(=O)OC)CC2)cc1	-0.8	105.3	113.0	105.6
Cn1nnnc1SCc1ccccc1	-15.8	99.8	92.0	92.4
CN1C(=O)S/C(=C\c2ccc(N(C)C)cc2)C1=O	-70.2	164.5	107.1	100.7
COc1cccc(C2C(C#N)=C(N)Oc3c2c(=O)n(C)c(=O)n3C)c1 (stereo not drawn)	11.9	106.2	115.3	66.8
Cc1ccc2[nH]c3c(=O)n(CC(=O)O)cnc3c2c1	-29.6	102.9	x	x
C1=CCC(CNCCN2CCOCC2)CC1 (stereo not drawn)	-8.1	106.6	118.7	81.5
COc1ccc(-c2ccc(C#N)c(SCC#N)n2)cc1OC	-19.4	109.1	120.2	88.3
O=C(Nc1ccc2nc(SCC(=O)N3CCCC3)sc2c1)c1ccc(Br)cc1	3.9	108.8	95.3	94.2

Next section; it opens with the two that closed the last part.
SMILES	HCMV NEC inh	GIV-Gai inh	Sa growth 42C	Sa growth 42C second temp
COc1ccc(-c2ccc(C#N)c(SCC#N)n2)cc1OC	-19.4	109.1	120.2	88.3
O=C(Nc1ccc2nc(SCC(=O)N3CCCC3)sc2c1)c1ccc(Br)cc1	3.9	108.8	95.3	94.2
COc1cc(/C=C2\N=C(c3ccccc3F)OC2=O)cc(Br)c1OC(C)=O	-5.5	109.0	x	x
Cn1c(=O)c(-c2ccccc2N)nc2ccccc21	-82.7	100.0	119.9	87.0
Cc1ccc(NC(=O)Cn2cc3c(n2)CCC(C)C3)c(Cl)c1 (stereo not drawn)	-4.4	103.3	88.9	84.2
CCOC(=O)c1c(NC(=O)Cc2ccc(Cl)cc2)sc(C(=O)Nc2ccc(C)c(Cl)c2)c1C	5.7	104.4	x	x
Cc1ccccc1CSCC(=O)NCc1ccccc1	x	105.2	113.7	85.0
Cc1ccccc1C(=O)Nc1nnc(S(=O)(=O)N(C)Cc2ccccc2)s1	-3.1	100.7	88.0	101.2
O=S1(=O)CCN(OCc2ccc(C(F)(F)F)cc2)CC1	11.1	103.6	x	x
CC(C)NC(=O)c1cccc(N2CCCS2(=O)=O)c1	-26.8	97.3	104.9	81.5
CSc1sc(C(=O)N2CCCCC2)c(-c2cccs2)c1C#N	0.7	106.9	127.1	94.0
Cc1noc2c1C(c1ccc(Br)c(F)c1)C1=C(CC(c3ccccc3O)CC1=O)N2 (stereo not drawn)	9.1	105.6	x	x
CC(C)CCNC(=O)c1cc2c(s1)-c1ccccc1S(=O)(=O)C2	-24.6	107.5	86.8	78.7
O=C(C1CCCO1)N1CCN(c2ccccn2)CC1 (stereo not drawn)	4.9	107.7	94.3	104.6
CC(=C(C#N)C#N)c1ccc(Br)cc1	-41.4	x	83.4	63.8
Cc1ccc(C)c(N2CCN(C(=O)C3CCC(CNS(=O)(=O)c4cccs4)CC3)CC2)c1 (stereo not drawn)	-26.2	105.9	93.3	91.2
S=C1NC2=C(CCc3ccccc32)C(c2ccccc2)N1 (stereo not drawn)	x	103.9	105.0	78.9
O=C(c1cc(S(=O)(=O)N2CCCC2)c(Cl)cc1Cl)N1CCCC1	-26.9	x	84.1	89.1
CCOc1ccc(CCNC(=O)Cn2nc(C)c3c(C)n(-c4ccccc4)nc3c2=O)cc1OCC	x	100.4	88.4	89.0
COc1ccc(NC(=O)C2CCC(CNS(=O)(=O)c3csc(C(N)=O)c3)CC2)cc1 (stereo not drawn)	x	100.9	87.3	87.2
CCCCn1c(SCC(=O)c2ccccc2)nc2ccsc2c1=O	x	99.5	111.0	91.9
Cc1cccc(CC2SC(=Nc3ccc(Cl)cc3)NC2=O)c1 (stereo not drawn)	-8.3	106.9	x	x
